CtBP-E1A blk: inhibitors of CtBP/E1A interaction; AlphaScreen GST-E1A/His-CtBP binding, 1536-well; hits give low values; control for the full effect not named in the record; activity change, % (no concentration beside the values); 340,000 tested, 0.49% active; AID 651724; in the data active means activity change below about -65%; inconclusive means about -30% to -65%; inactive means above about -30%; also: % is scaled to controls: 0 for no effect and ±100 for the full control effect; compound concentration not given in the record
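AlphaScreen with 125 nM GST-E1A and 125 nM His-CtBP (5X stocks) in Tris pH 8.0, 300 mM NaCl, BSA, Tween 20, TCEP. Compounds preincubated 2 h at 37 deg C, then glutathione donor/nickel acceptor beads added for 1 h at 37 deg C in dark.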
D2 potentiator: positive allosteric modulators of human D2 dopamine receptor. potentiation, % (test concentration not listed). DiscoveRx D2 beta-arrestin cells, luminescence, 90 min; 100% = 57 uM dopamine signal. P14416. 360,000 tested, 0.23% active; active = potentiation of 50% or more; inconclusive = 30% to 50%; inactive = 30% or less;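 also: compound concentration not given in the record; tested on top of an EC20 dose of dopamine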
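PathHunter D2 cells, attached overnight at 37 deg C, received compound in DMSO plus dopamine at EC20 (50 nM final) for 90 min at 37 deg C. Beta-arrestin recruitment was read as luminescence after 1 h with detection reagent at ambient temperature.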
TRPV1 PAM: human TRPV1 potentiation; 320,000 tested, 0.02% active; potentiation, % at 8.33 µM; TRPV1-expressing cells, Fluo-8 calcium influx, capsaicin EC20 potentiation; host cell line not named in the record; control for the full effect not named in the record; active means potentiation above 80%; inconclusive means 30% to 80%; inactive means below 30%; also: 0% is about no effect
Target sequence (Q8NER1 whole entry, looked up): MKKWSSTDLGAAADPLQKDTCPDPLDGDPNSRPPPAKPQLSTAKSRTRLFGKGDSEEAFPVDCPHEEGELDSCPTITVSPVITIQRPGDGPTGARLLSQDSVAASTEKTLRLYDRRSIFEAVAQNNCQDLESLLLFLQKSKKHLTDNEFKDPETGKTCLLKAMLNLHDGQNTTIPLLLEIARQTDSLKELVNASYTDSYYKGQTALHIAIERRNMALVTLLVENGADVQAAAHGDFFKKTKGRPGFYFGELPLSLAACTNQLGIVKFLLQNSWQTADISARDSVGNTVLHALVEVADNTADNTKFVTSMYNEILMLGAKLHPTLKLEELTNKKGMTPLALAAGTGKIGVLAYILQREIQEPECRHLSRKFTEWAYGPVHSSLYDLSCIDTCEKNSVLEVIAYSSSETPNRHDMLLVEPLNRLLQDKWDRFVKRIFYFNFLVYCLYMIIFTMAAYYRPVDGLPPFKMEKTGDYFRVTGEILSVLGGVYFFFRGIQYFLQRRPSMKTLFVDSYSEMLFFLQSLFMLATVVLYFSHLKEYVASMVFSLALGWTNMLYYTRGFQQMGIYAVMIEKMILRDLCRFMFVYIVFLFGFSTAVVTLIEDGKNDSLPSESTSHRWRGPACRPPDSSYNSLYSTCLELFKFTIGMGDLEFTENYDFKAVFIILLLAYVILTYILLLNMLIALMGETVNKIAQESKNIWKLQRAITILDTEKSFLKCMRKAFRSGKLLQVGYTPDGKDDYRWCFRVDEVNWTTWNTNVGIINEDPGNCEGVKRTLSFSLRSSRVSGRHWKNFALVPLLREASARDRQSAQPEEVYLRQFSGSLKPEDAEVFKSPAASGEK
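TRPV1-expressing cells were cultured overnight at 35.5C and loaded with Fluo-8 calcium dye for 40 to 90 min at room temperature. After a 10 s baseline, compound was added and calcium influx was read kinetically for 3 min (ex 480/em 520 nm).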
TRPML1 ag: human mucolipin-1 channel agonism; TRPML1-expressing cells, Ca2+ dye fluorescence, FDSS; host cell line not named in the record; reference of the full effect not given here; activation, % (test concentration not listed); 410,000 tested, 0.12% active; AID 624414; in the data active = activation above about 50%; inconclusive = about 30% to 50%; inactive = below about 30%; also: 0% is about no effect; the text of the record puts the active cut at 80%
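In this qHTS format, compounds were pin-transferred onto Ca8-dye-loaded TRPML1-DL cells induced with Tet overnight, and intracellular Ca2+ fluorescence was recorded kinetically for 110 s after a 10 s baseline. A subsequent 4uM final 54-4 (EC80) addition followed by a second 110 s read served as the antagonist phase.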
Six1-Eya2 blk: blocks human Six1 binding to Eya2. Q15475+O00167. AlphaScreen GST-Six1/His-Eya2 binding, biochemical; hits give low values; control for the full effect not named in the record. activity change, % (test concentration not listed). 360,000 tested, 0.56% active. AID 651725; in the data active = activity change below about -65%; inconclusive = about -30% to -65%; inactive = above about -30%; also: % is scaled to controls: 0 for no effect and ±100 for the full control effect; compound concentration not given in the record
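GST-Six1 + His-Eya2 (5X stock: 250/500 nM); Tris pH 8.0, 300 mM NaCl, 0.05% BSA, 0.02% Tween 20; GSH donor/Ni acceptor beads; 1 h 37 °C dark; AlphaScreen readout.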
TRPML1 blocker: human mucolipin-1 channel inhibition. 390,000 tested, 0.02% active. activity change, negative = inhibition, % (no concentration beside the values). TRPML1-inducible cells, Ca2+ dye fluorescence, FDSS; hits give low values; inhibition of EC80 agonist-evoked calcium signal; in the data active means activity change below about -50%; inconclusive means about -30% to -50%; inactive means above about -30%;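 also: stimulus is agonist 54-4 at its EC80 concentration; % is scaled to controls: 0 for no effect and ±100 for the full control effect; compound concentration not given in the record; the text of the record puts the active cut at -80%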
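Tet-induced TRPML1-DL cells loaded with Ca8 no-wash calcium dye were read kinetically on FDSS. Compound addition was followed by EC80 agonist 54-4 (4 uM final); inhibition was read over 110 s.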
Starred values were filed as active, the others as inactive; ? = inconclusive; . = not tested or not shown; & = joins results of further samples.

SMILES	CtBP-E1A blk	D2 potentiator	TRPV1 PAM	TRPML1 ag	Six1-Eya2 blk	TRPML1 blocker
Cn1nnnc1SCC(=O)Nc1nn(-c2ccccc2)nc1C(N)=O	7	7	4	-0.4	0	-1
Cc1cccc(-n2c(N)cc(=O)nc2SCC(=O)NC2CCCCC2)c1	7	24	17	-1.5	1	20
CCOC(=O)c1ccccc1NC(=O)COC(=O)Cc1ccccc1F	31	3	5	0.2	34	5
O=C(CSc1ccccn1)N1CCN(S(=O)(=O)c2ccc(Cl)cc2)CC1	0	2	-15	-0.6	3	-11
NC(=O)NC(=O)CC1S/C(=N/N=C/c2ccccc2)NC1=O (stereo unspecified)	-3	-2	0	0.0	8	-11
CCC(C(=O)OC)n1cnc2c(nnn2-c2ccccc2)c1=O (stereo unspecified)	-9	-2	-9	0.2	6	11
CCOc1ccc(Nc2cc(C)nc3nc(C)nn23)cc1	-8	2	2	1.3	-2	-7
O=C(CSc1nc2cc(S(=O)(=O)N3CCOCC3)ccc2o1)Nc1c(F)cccc1F	-4	-1	12	-0.2	-7	-7
COc1ccc(C)cc1NC(=O)C1CCN(S(=O)(=O)c2c(C)noc2C)CC1	1	-16	4	-0.5	0	20
CC(C)(CO)CNC(=O)CCc1nnc(CCCc2ccccc2)o1	-11	-2	-8	0.2	5	6
O=C(Nc1cccc(S(=O)(=O)N2CCCCC2)c1)C1CC(=O)N(Cc2ccco2)C1 (stereo unspecified)	4	-8	-6	0.0	-10	-5
C=CCn1c(C)c(C(C)=O)c(N2CCN(C(c3ccccc3)c3ccccc3)CC2)nc1=S	-13	-11	1	16	-21	-4
Cn1c2ccc(F)cc2c2ncn(CC3CCCO3)c(=O)c21 (stereo unspecified)	.	7	10	0.7	3	1
O=C(CSc1cccc[n+]1[O-])C12CC3CC(CC(C3)C1)C2	3	-5	-16	-0.2	5	-20
COc1ccc(-c2nnc(SC)n2C)cc1	2	-9	-4	-0.1	0	11
CC(C)Oc1cccc(C(=O)C2CCCN(C(=O)c3ccsc3)C2)c1 (stereo unspecified)	.	-14	-9	-0.8	5	10
N#Cc1c(N)sc2c1CCCCCC2	-12	-1	3	0.2	-4	-4
CC1(C)Cc2cccc(OCC(=O)NCc3ccccc3F)c2O1	2	1	1	5.6	3	12
O=C(c1ccc(N2CCCC2=O)cc1)N1CCN(c2ccccc2O)CC1	-19	2	1	2.0	-2	1
O=C(Nc1ccc(NC(=O)c2ccccc2O)cc1)Nc1ccc(F)cc1F	-1	-7	-14	-0.1	-16	2
COc1ccccc1C(=O)Nc1cccc(SC)c1	4	-13	?	0.7	2	7
Cc1ccc(NC(=O)CNc2ccc(Cl)cc2F)cc1	-2	-7	-9	0.9	4	11
CCNS(=O)(=O)c1ccc(NC(=O)c2ccc(Cn3cc(Br)cn3)o2)cc1	9	26	-9	-0.6	-2	8
CCc1ccc(-c2n[nH]c(=O)c3ccccc23)cc1	-8	-13	10	2.2	-4	5

Single records (already shown). Order of screens: CtBP-E1A blk, D2 potentiator, TRPV1 PAM, TRPML1 ag, Six1-Eya2 blk, TRPML1 blocker
O=C(c1ccc(N2CCCC2=O)cc1)N1CCN(c2ccccc2O)CC1 is listed as -19, 2, 1, 2.0, -2, 1
CC1(C)Cc2cccc(OCC(=O)NCc3ccccc3F)c2O1 is listed as 2, 1, 1, 5.6, 3, 12
O=C(Nc1ccc(NC(=O)c2ccccc2O)cc1)Nc1ccc(F)cc1F is listed as -1, -7, -14, -0.1, -16, 2
N#Cc1c(N)sc2c1CCCCCC2 is listed as -12, -1, 3, 0.2, -4, -4
Cc1ccc(NC(=O)CNc2ccc(Cl)cc2F)cc1 is listed as -2, -7, -9, 0.9, 4, 11

Pulled by compound from the list above, 2 records:
SMILES	CtBP-E1A blk	D2 potentiator	TRPV1 PAM	TRPML1 ag	Six1-Eya2 blk	TRPML1 blocker
O=C(Nc1cccc(S(=O)(=O)N2CCCCC2)c1)C1CC(=O)N(Cc2ccco2)C1 (stereo unspecified)	4	-8	-6	0.0	-10	-5
Cc1ccc(NC(=O)CNc2ccc(Cl)cc2F)cc1	-2	-7	-9	0.9	4	11

Carrying on.
SMILES	CtBP-E1A blk	D2 potentiator	TRPV1 PAM	TRPML1 ag	Six1-Eya2 blk	TRPML1 blocker
Cc1cc(NC(=O)CN2C(=O)/C(=C/c3ccc(C(C)C)cc3)SC2=S)no1	-5	-7	.	0.2	-3	10
O=CN1Cc2[nH]c3ccccc3c2N(c2ccc(Cl)cc2)C1=O	-17	-25	10	3.0	2	-6
Cc1cccc(NC(=O)c2ccc(C3SCC(=O)N3CCc3ccccc3)cc2)c1C (stereo unspecified)	-7	-7	-6	1.9	-6	43
CC(=O)Nc1c(NC(=O)CC#N)[nH]c2c(c1=O)c(=O)n(C)c(=O)n2C	-9	-6	6	-0.3	7	-7
CC(=O)c1ccc(-c2ccc(/C=C(/Sc3n[nH]c(C)n3)C(=O)O)o2)cc1	-21	0	11	3.4	-2	-9
CC1C(=O)N2CCCc3cc(NC(=O)CC(C)(C)C)cc1c32 (stereo unspecified)	.	-5	14	-0.2	1	5
CCc1nc2c(OCc3ccc(Cl)cc3Cl)cccn2c1N(C)C(C)=O	-3	2	.	15	-3	.
O=C(C1CCCN(S(=O)(=O)c2ccccc2)C1)N1CCN(c2ccc(F)cc2)CC1 (stereo unspecified)	-3	-9	9	1.0	0	30
COCCCNC(=O)C[C@@H]1C[C@@]2(C(=O)OC)CCCCC=C2N(Cc2cccc3ccccc23)C1=O	-5	.	.	-0.1	4	.
O=C1N/C(=C/c2cccs2)C(=O)N1Cc1ccc(F)cc1	-8	3	1	-1.2	4	-8
O=C(COc1ccc(Cl)cc1Br)Nc1nnc(C2CC2)s1	.	-7	12	-1.2	5	-12
O=S(=O)(/N=C(/c1ccccc1)N1CCOCC1)c1ccc(F)cc1	0	-1	1	-0.3	-13	-9
CC(=O)N1c2ccccc2C2(O)N=C(C)SC12 (stereo unspecified)	7	0	-3	0.3	-4	3
Cc1ccccc1CNC(=O)c1csc([C@@H]2C[C@H](O)[C@@H](CO)O2)n1	4	-4	.	-0.7	0	.
COC(=O)c1cc2c(=O)n3ccccc3nc2n(Cc2cccnc2)c1=N	3	4	.	0.8	1	-8
Cn1c(Cl)nc2ccccc21	0	-8	11	0.6	4	17
O=C(NC(=S)NCCN1CCOCC1)c1cccc(Cl)c1	36	-5	18	-0.6	18	-12
Cn1cccc1/C=C(\C#N)c1ccccc1	-24	-3	-4	1.2	?	37
CN(CC(=O)Nc1ccccc1Cl)C(=O)COC(=O)/C=C/c1ccc(C(F)(F)F)cc1	-4	-5	4	-0.8	-4	16
O=C(Nc1nnc(-c2ccc(F)cc2)s1)c1ccco1	2	2	?	0.8	11	12
COc1ccc(-c2nnc(NC(=O)c3ccc(S(=O)(=O)N4COCC4(C)C)cc3)o2)cc1	?	-13	-2	-1.1	?	0
CN(C)C=Nc1nonc1-c1ccc(Cl)cc1	.	-13	-3	-1.5	20	-7
CCOC(=O)c1c(C)[nH]c(C)c1S(=O)(=O)NCC1CCN(Cc2ccccc2F)CC1	.	-20	-8	1.5	-10	8
CN1C=CC(=O)[C@@H](O)[C@H]1c1ccccc1Br	7	-2	.	1.8	4	-15
NC(=NCc1ccco1)NC(=O)c1ccccc1	.	-18	3	0.0	-11	1
Cc1cccc(NS(=O)(=O)c2cccc(C(=O)N3CC(C)OC(C)C3)c2)c1 (stereo unspecified)	5	5	-8	-0.8	3	44
Cc1noc(C)c1C(=O)OCC(=O)N(C)C1(C#N)CCCCC1	.	-3	5	0.2	0	4
O=C(NCc1ccccc1)c1ccc(S(=O)(=O)N2CCCCCC2)cc1	1	-14	.	0.1	-2	15
Cc1ccc(O)c(Sc2cc(C)ccc2O)c1	-16	-2	8	1.8	-8	-12
CC(=O)Nc1ccc(C(=O)CSc2nnc(C)o2)cc1	-5	4	0	0.0	9	5
CCn1cc(/C=C(\NC(=O)c2ccc(OC)cc2)C(=O)NCCCn2ccnc2)c2ccccc21	3	-16	.	0.1&-0.3	-18	-14&2
Cc1cccc(C)c1N1CCN(c2n[nH]c(N)n2)CC1	.	0	9	0.5	-4	1
O=C(O)c1ccccc1Nc1cc(Cl)c2nonc2c1[N+](=O)[O-]	-9	3	-5	0.5	?	-1
Cc1ccc(NC(=O)C(C)N=C2NS(=O)(=O)c3ccccc32)cc1F (stereo unspecified)	2	-6	-6	-0.8	0	-6
Cc1c(Cl)cccc1NC(=O)c1cc(C2CC2)on1	9	1	.	0.3	11	-3
Cc1cc(=O)oc2cc(OCC(O)CN3CCN(c4ccccc4)CC3)ccc12 (stereo unspecified)	-19	30	7	-0.3	-15	-16
CCOC(=O)C1=C(C)NC(=O)NC1c1ccc(OC)c(Cl)c1 (stereo unspecified)	2	-36	3	1.4	-2	35
Cc1ccc(Cc2nc3ccccc3[nH]2)cc1	6	-8	-14	-1.3	4	-22
CC(=O)N1c2ccc(S(=O)(=O)N3CCCCC3)cc2CC1C(=O)NCc1cccc(Cl)c1 (stereo unspecified)	-19	0	-6	0.7	4	31
CCOC(=O)C1CCN(c2c(NCCCN(CC)Cc3ccccc3)c(=O)c2=O)CC1	-3	-17	7	-0.1	-9	-1
Cc1ccc(NC(=O)NCc2ccccn2)c(C)c1	6	5	8	-0.3	4	8
COc1cc(OC)c2c(-c3cccc(-c4cccc(C)c4)c3)cc(=O)oc2c1	0	.	.	1.2	0	3
COc1ccc(NC(=O)Nc2ccc(Cc3ccncc3)cc2)c(OC)c1	5	-12	-11	-0.3	-18	-4
O=C(NCc1cccs1)c1cc(C2CC2)on1	-6	-4	11	-0.3	0	6
CCN(CC(=O)Nc1ccccc1C(F)(F)F)C(=O)c1ccccc1Sc1ccccc1C#N	.	4	-13	-0.5	-4	-7
Cc1cccc(COC(=O)Nc2ccc(NC(=O)c3ccccc3Cl)cc2)c1	.	2	2	1.4	5	7
CCOC(=O)[C@H]1[C@H]2COc3ccc(OC)cc3[C@@H]2N2C(=O)CN(Cc3ccccc3)C(=O)[C@@]12C	-3	1	9	-0.5	-1	10
Nc1nnc(CC(=O)N/N=C/c2ccc(-c3cccc(C(=O)O)c3)o2)s1	-71*	0	-3	-0.5	-66*	1
COc1ccc2[nH]c(=O)c(CN(CCc3cccc(C)c3)C(C)=O)cc2c1	4	8	-15	0.4	1	13
Cc1ccc(F)c([C@H]2[C@H]3C=CC[C@@H](C)[C@@H]3C(=O)N2Cc2ccccc2)c1	3	-12	-28	0.8	2	44
CCc1ccc(OCC(=O)NNC(=O)Cc2c(F)cccc2Cl)cc1	-23	-20	-6	0.6	-7	6
Nc1ncnc2c1ncn2[C@@H]1O[C@H](CNCc2cccc(C#Cc3ccccc3)c2)[C@@H](O)[C@H]1O	0	-1	.	-0.3	-1	18
Cc1c(OCc2ccc([N+](=O)[O-])cc2)ccc2c3c(c(=O)oc12)CCC3	8	-7	-1	0.2	7	-7
O=C(COC(=O)Cc1cccs1)Nc1cc(S(=O)(=O)N2CCOCC2)ccc1Cl	3	1	.	0.0	3	-2
Cc1c(C(=O)NC(=S)N(Cc2ccccc2)c2ccccn2)cccc1[N+](=O)[O-]	.	-4	8	-0.7	7	1
